High-throughput results from PubChem.
Vaccinia inh = Vaccinia orthopox stage-specific inhibition; 89,000 tested, 0.01% active; AID 1053133; activity change (mCherry), % (no concentration beside the values); Vaccinia-infected cells, mCherry/Venus stage reporter fluorescence; hits give low values; some inactives read as strong as hits;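 active = mCherry past -33% and 40 or more points under the early reporter, replicates agreeing; inconclusive = past -33% without that gap or agreement; tested in A549 cells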;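 note: scaled between vehicle wells and reference inhibitor wells; 23 nL library stock went into each well; one replicate is shown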
Vaccinia inh Venus = recorded beside Vaccinia inh, whose call it bears; activity change (Venus), %; measured here: Venus reporter, other viral stage;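 negative = less Venus signal; first of two replicates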
* marks the source's active call; other numbers are inactive results; ? = inconclusive; / = no result given; & = joins results of further samples. Only part of the results is shown (hit frequency here may not be typical).

SMILES | Vaccinia inh | Vaccinia inh Venus
C[C@H](CO)N1C[C@H](C)[C@H](CN(C)Cc2ccc(C(=O)Nc3ccccc3N)cc2)Oc2c(NC(=O)C3CC3)cccc2C1=O | -10.3 | -1.9
COCCOC(=O)N1C(=O)[C@@]2(c3cc(C#CCCO)ccc31)[C@H](c1ccccc1OCCO)N1[C@H](c3ccccc3)[C@H](c3ccccc3)OC(=O)[C@H]1[C@@H]2C(=O)N1CCN(c2ncccn2)CC1 | -2.2 | -2.8
C[C@H](CO)N1C[C@H](C)[C@H](CN(C)Cc2ccccn2)Oc2ncc(Br)cc2C1=O | 17.8 | 3.9
CC=Cc1ccc2n(c1=O)C[C@H]1[C@H](CO)[C@@H](C(=O)N(C)C)[C@@H]2N1C (mixture of isomers) | 15.3 | 12.3
Cc1noc(C)c1S(=O)(=O)Nc1ccc2c(c1)C(=O)N([C@@H](C)CO)C[C@H](C)[C@H](CN(C)S(C)(=O)=O)O2 | 2.6 | -1.1
C[C@H](CO)N1C[C@H](C)[C@@H](CN(C)Cc2ccc3c(c2)OCO3)Oc2ccc(NC(=O)Nc3ccc(F)cc3)cc2C1=O | 3.1 | 0.3
CO[C@@H]1CN(C)C(=O)c2ccc(NC(C)=O)cc2OC[C@@H](C)N(Cc2cncnc2)C[C@H]1C | -0.1 | 4.0
O=C(C[C@H]1C=C[C@@H](NC(=O)Cc2ccccn2)[C@@H](CO)O1)NCCc1ccncc1 | 1.3 | 0.9
C[C@@H]1CN([C@H](C)CO)C(=O)CCCn2nncc2CO[C@@H]1CN(C)C(=O)NC1CCCCC1 | 25.0&15.8 | 13.1&13.4
C[C@@H](O)C#Cc1ccc2c(c1)O[C@H](CN(C)Cc1cccnc1)[C@@H](C)CN([C@@H](C)CO)S2(=O)=O | -5.3 | -10.1
C[C@@H]1CCCCO[C@H](CN(C)C(=O)NC2CCCCC2)[C@@H](C)CN([C@H](C)CO)C(=O)c2cc(NC(=O)CCCCCC(=O)Nc3ccccc3N)ccc2O1 | 13.1 | 5.9
N#Cc1cccc(-c2ccc([C@H]3[C@@H](CO)N[C@@H]3CNC(=O)C3CC3)cc2)c1 | -1.3 | 7.2
CC=Cc1ccc2n(c1=O)C[C@@H]1[C@@H](CO)[C@H](C(=O)NCCN3CCCC3)N(C(=O)NC(C)C)[C@H]21 (mixture of isomers) | 0.0 | 9.8
C[C@H](CO)N1C[C@H](C)[C@H](CN(C)Cc2ccc(C(=O)Nc3ccccc3N)cc2)Oc2ccc(NS(=O)(=O)c3ccc(Cl)cc3)cc2CC1=O | -0.2 | -13.6
CC(C)C(=O)Nc1ccc2c(c1)C(=O)N(C)[C@H]1CC[C@H](CC(=O)NCC3CC3)O[C@@H]1CO2 | 6.2 | 3.4
C/C=C/c1ccc([C@H]2[C@@H](CNC(=O)c3ccccn3)N(C(=O)CC)[C@H]2CO)cc1 | 0.8 | 10.4
C[C@@H]1CN([C@@H](C)CO)C(=O)CCCn2cc(nn2)CO[C@H]1CN(C)C(=O)Nc1ccc(C(F)(F)F)cc1 | 11.1&9.6 | 4.6&15.8
CN1C(=O)c2cc(NC(=O)C3CC3)ccc2OC[C@@H]2O[C@@H](CC(=O)O)CC[C@H]21 | 6.7 | 4.7
COCC(=O)N(C)C[C@@H]1Oc2cc(C#CCN(C)C)ccc2S(=O)(=O)N([C@H](C)CO)C[C@@H]1C | 14.4 | 7.6
COc1ccccc1NC(=O)N1C[C@H](O)COC[C@H]2O[C@@H](CC(=O)N3CCC(Cc4ccccc4)CC3)CC[C@@H]21 | -26.4 | -19.9
O=C(C[C@@H]1CC[C@@H]2[C@H](COC[C@H](O)CN2CCC(F)(F)F)O1)NCC1CCCCC1 | -8.2 | -5.3
Cc1ccc(-c2cnc3c(c2)C(=O)N([C@@H](C)CO)C[C@@H](C)[C@@H](CN(C)CC2CC2)O3)cc1 | ? | /
C[C@@H]1CN([C@@H](C)CO)C(=O)c2cc(NS(=O)(=O)c3cn(C)cn3)ccc2O[C@@H](C)CCCCO[C@H]1CN(C)S(=O)(=O)c1cccs1 | 11.5 | 5.7
Cc1ccccc1-c1ccc([C@H]2[C@@H](CO)N3C(=O)CN(C(=O)c4ccncc4)C[C@H]23)cc1 | -4.7 | 7.9
COc1ccc(-c2ccc([C@H]3[C@@H](CO)N4C(=O)CN(C(=O)c5ccccn5)C[C@@H]34)cc2)cc1 | 2.9 | 14.7
C[C@@H]1CN([C@@H](C)CO)C(=O)c2cc(C#CC3CC3)cnc2O[C@@H]1CN(C)S(C)(=O)=O | 33.6 | 19.4
COc1cc(CN2CC3(CN(C(=O)c4cccnc4)C3)c3c([nH]c4cc(OC)ccc34)[C@@H]2CO)cc(OC)c1 | 13.6 | 1.0
Cc1noc(C)c1S(=O)(=O)Nc1ccc2c(c1)CC(=O)N([C@H](C)CO)C[C@@H](C)[C@@H](CN(C)C)O2 | 7.8 | 7.3
C[C@H]1CN([C@@H](C)CO)C(=O)c2cc(NS(=O)(=O)c3cn(C)cn3)ccc2O[C@H]1CN(C)C(=O)Nc1cccc2ccccc12 | -3.9 | -8.6
C[C@@H]1CN([C@H](C)CO)C(=O)c2cc(C#Cc3ccccn3)cnc2O[C@@H]1CN(C)C(=O)c1cnccn1 | 25.1 | 23.8

2 records drawn at random from those above:
SMILES | Vaccinia inh | Vaccinia inh Venus
O=C(C[C@@H]1CC[C@@H]2[C@H](COC[C@H](O)CN2CCC(F)(F)F)O1)NCC1CCCCC1 | -8.2 | -5.3
Cc1ccccc1-c1ccc([C@H]2[C@@H](CO)N3C(=O)CN(C(=O)c4ccncc4)C[C@H]23)cc1 | -4.7 | 7.9

Continuation:
SMILES | Vaccinia inh | Vaccinia inh Venus
CN1[C@H](C(=O)N2CCc3ccccc3C2)[C@@H](CO)[C@@H]2Cn3c(ccc(-c4ccncc4)c3=O)[C@@H]21 | 14.2 | 19.6
COc1ccc(NC(=O)N2CC(=O)N3[C@@H](CO)[C@H](c4ccc(/C=C/c5ccccc5)cc4)[C@@H]3C2)cc1 | -21.0 | -16.1
Cc1ccc(S(=O)(=O)N(C)C[C@@H]2OCCCC[C@H](C)Oc3ccc(NC(=O)Nc4cccc5ccccc45)cc3C(=O)N([C@@H](C)CO)C[C@H]2C)cc1 | 22.8 | 59.8
C[C@@H]1CN([C@H](C)CO)C(=O)Cc2cc(NS(=O)(=O)c3ccc(Cl)cc3)ccc2O[C@@H]1CN(C)S(=O)(=O)c1cccs1 | -12.2 | -14.0
COc1ccc(C#Cc2cnc3c(c2)C(=O)N([C@H](C)CO)C[C@H](C)[C@H](CN(C)S(=O)(=O)c2ccc(C)cc2)O3)cc1OC | ? | /
C[C@@H]1CN([C@@H](C)CO)C(=O)CCCn2nncc2CO[C@@H]1CN(C)C(=O)c1ccc2ccn(C)c2c1 | 3.7&13.1 | 5.6&12.6
O=C(C[C@H]1C=C[C@H](NC(=O)CCN2CCCCC2)[C@@H](CO)O1)Nc1ccc(-c2ccccc2)cc1 | ? | /
CN(C)C(=O)c1ccc(-c2ccccc2[C@H]2[C@@H](C#N)N(C(=O)C3CCCCC3)[C@H]2CO)cc1 | 14.2 | 13.1
C[C@H](CO)N1C[C@H](C)[C@H](CN(C)CC2CCCCC2)Oc2c(NC(=O)C3CCOCC3)cccc2C1=O | 21.0 | 26.8
CC(C)C#Cc1cnc2c(c1)C(=O)N([C@@H](C)CO)C[C@H](C)[C@H](CN(C)C(=O)c1ccccc1)O2 | 6.9 | 5.2
CCC(=O)N1CC2(C1)[C@H](c1ccc(-c3ccc(C)cc3)cc1)[C@H](CO)N2S(C)(=O)=O | -9.5 | -7.7
COc1ccc(NC(=O)N(C)C[C@@H]2Oc3ccc(NC(=O)Cc4cn(C)c5ccccc45)cc3C(=O)N([C@@H](C)CO)C[C@@H]2C)cc1 | 14.3 | 12.5
O=C(C[C@H]1CC[C@@H](NC(=O)NC2CCCCC2)[C@@H](CO)O1)NCc1ccc(Cl)cc1 | 6.0 | 10.8
CC(C)C#Cc1cnc2c(c1)C(=O)N([C@H](C)CO)C[C@@H](C)[C@@H](CN(C)S(=O)(=O)c1cn(C)cn1)O2 | 15.6 | 5.7
CO[C@H]1CN(C)C(=O)c2cc(NC(=O)C3CC3)ccc2OC[C@@H](C)N(Cc2cncnc2)C[C@@H]1C | -1.3 | 5.4
C[C@@H]1CN([C@H](C)CO)C(=O)Cc2cc(NS(=O)(=O)c3cccs3)ccc2O[C@H]1CN(C)S(=O)(=O)c1ccc(F)cc1 | 3.6 | 6.6
COC(=O)[C@H]1[C@H](CO)[C@H]2Cn3c(ccc(C4=CCCCC4)c3=O)[C@@H]1N2C(=O)Cc1ccccn1 | 5.3 | -1.8
C[C@@H]1CN([C@@H](C)CO)C(=O)c2cc(C#CC3CC3)cnc2O[C@H]1CN(C)Cc1ccccn1 | -1.7 | 4.9
CC(C)[C@H](C)NC(=O)N(C)C[C@@H]1OCc2ccccc2-c2c(n(C)c3ccccc23)C(=O)N([C@H](C)CO)C[C@H]1C | -32.2 | -22.6
COc1cccc(-c2ccc(C3[C@@H]4CN(C(=O)C5CCCC5)C[C@H]3N4)cc2)c1 (stereo partly drawn) | ? | /
Cc1cccc(S(=O)(=O)N2CCCCN3[C@H](C2)[C@@H](c2ccc(-c4ccccc4)cc2)[C@@H]3CO)c1 | 15.0 | 12.5
C[C@H]1CN([C@@H](C)CO)S(=O)(=O)c2ccc(C#CC3CC3)cc2O[C@H]1CN(C)C(=O)c1cnccn1 | -4.5 | -10.4
CO[C@H]1CC[C@@H]2CCOc3ccc(C#N)cc3C(=O)N(C)[C@H](C)C(=O)N(C)C[C@@H]1O2 | 10.6 | 5.1
CO[C@@H]1CN(C)C(=O)c2ccc(NC(=O)C3CCOCC3)cc2OC[C@@H](C)N(C(C)=O)C[C@@H]1C | 7.8 | 1.0
CCS(=O)(=O)Nc1ccc2c(c1)C(=O)N(C)C[C@@H](OC)[C@@H](C)CN(Cc1nccs1)[C@@H](C)CO2 | -1.5 | 1.3
COc1ccccc1NC(=O)N1C[C@H](O)COC[C@H]2O[C@@H](CC(=O)NCCc3ccncc3)CC[C@@H]21 | -6.7 | -10.3
CO[C@H]1CN(C)C(=O)c2cc(NC(C)=O)ccc2OC[C@@H](C)N(C(=O)c2ccccc2)C[C@H]1C | 20.4 | 16.6
CC(C)CC#Cc1ccc2c(c1)O[C@H](CN(C)C(=O)Cc1ccccc1)[C@@H](C)CN([C@H](C)CO)S2(=O)=O | ? | /
O=C(NCc1ccccc1F)[C@H]1[C@H](CO)[C@H]2Cn3c(cccc3=O)[C@H]2N1CC1CC1 | 14.7 | 13.9
C[C@H](O)C#Cc1ccc([C@H]2[C@H]3CN(C(=O)Nc4ccccc4)CCCCN3[C@H]2CO)cc1 | ? | /
CCC(=O)N(C)C[C@H]1Oc2ncc(-c3cccc(OC)c3)cc2C(=O)N([C@H](C)CO)C[C@H]1C | 6.2 | 1.3
C[C@H]1CN([C@@H](C)CO)C(=O)c2cc(N(C)C)ccc2O[C@@H]1CN(C)CC1CCCCC1 | 3.2 | 5.9
CC(C)NC(=O)Nc1ccc2c(c1)C(=O)N([C@@H](C)CO)C[C@@H](C)[C@@H](CN(C)C(=O)C1CCCCC1)OCCCC[C@H](C)O2 | 10.8 | 2.7
CCNC(=O)C[C@H]1CC[C@H](NC(=O)C2CCC2)[C@@H](CO)O1 | 8.8 | 6.5
Cc1noc(C)c1S(=O)(=O)N(C)C[C@@H]1Oc2ccc(NC(=O)Nc3cccc4ccccc34)cc2CC(=O)N([C@H](C)CO)C[C@@H]1C | -8.1 | 6.8
CCC(=O)Nc1ccc2c(c1)C(=O)N(C)[C@@H]1CC[C@@H](CC(=O)O)O[C@@H]1CO2 | 8.5 | 16.9
C[C@H]1CN([C@@H](C)CO)C(=O)c2cc(C#Cc3cccc(F)c3)cnc2O[C@H]1CN(C)CC1CCOCC1 | 2.4 | 0.3
CO[C@H]1CN(C)C(=O)c2ccc(NC(=O)C3CC3)cc2OC[C@H](C)N(Cc2ccc(F)cc2)C[C@@H]1C | -9.3 | -3.6
COc1ccc2c3c([nH]c2c1)[C@@H](CO)N(C(=O)NC(C)C)CC31CN(C(=O)c2cccnc2)C1 | 18.3 | 5.9
C[C@@H](O)C#Cc1cnc2c(c1)C(=O)N([C@@H](C)CO)C[C@H](C)[C@H](CN(C)C(=O)c1ccc(F)cc1)O2 | 4.9 | 4.2
O=C(Nc1ccccc1F)N1CC(=O)N2[C@H](C1)[C@@H](c1ccc(C#Cc3ccccc3)cc1)[C@@H]2CO | ? | /
c1cncc(-c2ccc(C3[C@@H]4CN(Cc5nccs5)C[C@H]3N4)cc2)c1 (stereo partly drawn) | ? | /

In the list so far, these contain an aryl methoxy group.
SMILES | Vaccinia inh | Vaccinia inh Venus
COc1ccccc1NC(=O)N1C[C@H](O)COC[C@H]2O[C@@H](CC(=O)N3CCC(Cc4ccccc4)CC3)CC[C@@H]21 | -26.4 | -19.9
COc1ccc(-c2ccc([C@H]3[C@@H](CO)N4C(=O)CN(C(=O)c5ccccn5)C[C@@H]34)cc2)cc1 | 2.9 | 14.7
COc1cc(CN2CC3(CN(C(=O)c4cccnc4)C3)c3c([nH]c4cc(OC)ccc34)[C@@H]2CO)cc(OC)c1 | 13.6 | 1.0
COc1ccc(NC(=O)N2CC(=O)N3[C@@H](CO)[C@H](c4ccc(/C=C/c5ccccc5)cc4)[C@@H]3C2)cc1 | -21.0 | -16.1
COc1ccc(C#Cc2cnc3c(c2)C(=O)N([C@H](C)CO)C[C@H](C)[C@H](CN(C)S(=O)(=O)c2ccc(C)cc2)O3)cc1OC | ? | /
COc1ccc(NC(=O)N(C)C[C@@H]2Oc3ccc(NC(=O)Cc4cn(C)c5ccccc45)cc3C(=O)N([C@@H](C)CO)C[C@@H]2C)cc1 | 14.3 | 12.5
COc1cccc(-c2ccc(C3[C@@H]4CN(C(=O)C5CCCC5)C[C@H]3N4)cc2)c1 (stereo partly drawn) | ? | /
COc1ccccc1NC(=O)N1C[C@H](O)COC[C@H]2O[C@@H](CC(=O)NCCc3ccncc3)CC[C@@H]21 | -6.7 | -10.3
CCC(=O)N(C)C[C@H]1Oc2ncc(-c3cccc(OC)c3)cc2C(=O)N([C@H](C)CO)C[C@H]1C | 6.2 | 1.3
COc1ccc2c3c([nH]c2c1)[C@@H](CO)N(C(=O)NC(C)C)CC31CN(C(=O)c2cccnc2)C1 | 18.3 | 5.9
